# HTT prom inh: HTT promoter inhibition | HEK293 HTT promoter firefly luciferase reporter (activity 0% = vehicle and -100% = no light), 24 h | Potency, µM (doses to about 57.5 µM), without a hit: top-dose activity change, negative = inhibition, most hits filed as inhibitors | actives 0.93% (n = 48,000) | AID 1508623; active = well fitted inhibition curve with a large enough effect; inconclusive = small, poorly fitted or top-dose-only effect; inactive = no such curve, though single readings can be large or run the other way; also: nearly all actives have a fitted effect of over 50% in size
#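 Firefly luciferase signal from promoter-reporter HEK293 cells was scaled between vehicle (0%) and zero RLU (-100%). Compounds were tested at final concentrations of up to 57.5 uM over 24 h at 37 degrees C. PTC124 at 50 uM final served as control inhibitor.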
# PMP22 txn prim: PMP22 gene transcription modulation. S16 Pmp22-F2sN Schwann cells (luciferase reporters placed in the Pmp22 gene), FLuc/NLuc coincidence luminescence, 24 h. Potency, µM (doses to about 57.5 µM), without a hit: at the highest dose activity change, negative = inhibition, usual class: inhibitors. actives 2% (n = 43,000). AID 1508649; active = clear falling dose curves in both reporters; inconclusive = both reporters move, but less clearly or upward; inactive = either reporter flat; the % is the NLuc reporter signal; also: % is scaled to controls: 0 for no effect and ±100 for the full control effect; some results filed as inactive show a strong effect at the top dose
#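 Transcriptional readout in edited S16(c9) cells: two luciferases reported from the Pmp22 locus, measured in turn after 24 h compound incubation.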
# Starred values were filed as active, the others as inactive; u = inconclusive; x = not tested or not shown; [ ] = dose if it differs, or a comment. Potency is read from the fitted curve at half-maximal effect.
nr	SMILES	HTT prom inh	PMP22 txn prim
1	CC(C)(C)c1ccc(C(=O)Nc2ccc(-c3nc4ccccc4o3)c(O)c2)cc1	-16.4%	u
2	COc1ccc(N(CC(=O)NCCc2cccc(C)c2)S(=O)(=O)c2c(C)noc2C)cc1	-29.4%	-24.3%
3	CC1CCC(NC(=O)c2cc3c(Cl)nc4ccccc4c3s2)CC1 (stereo not given)	32.2%[activator]	-5.5%
4	CCC1CCCCN1C(=O)Cn1c(=O)n(CCCCCC(=O)NCc2ccc(F)cc2)c(=O)c2sccc21 (stereo not given)	-12.8%	-17.7%
5	COc1cccc(CCNc2ncnc3c2nnn3C)c1	u	-91.7%
6	COc1ccccc1Cc1nc2ccccc2nc1SCC(=O)N1CCc2ccccc21	-4.5%	-4.8%
7	Cc1ccc(N2CCN(S(=O)(=O)c3nnc(NC(=O)c4cccc(F)c4)s3)CC2)cc1	-29.2%	14.5%
8	CC(C)CC(=O)N[C@H](C(=O)N[C@H](C(=O)N[C@@H](CC(C)C)[C@@H](O)CC(=O)N[C@@H](C)C(=O)N[C@@H](CC(C)C)[C@@H](O)CC(=O)O)C(C)C)C(C)C	6.2%	x
9	CC(C)Nc1cc(N2CCN(C3CCCCC3)CC2)c2noc3c2c1C(=O)c1ccccc1-3	-9.2%	-13.5%
10	c1ccc(C(O[C@H]2CCCN(CCc3ccc4c(c3)OCO4)C2)c2ccccc2)cc1	0.8%	x
11	CCc1cccc(NC(=O)Cc2nc(-c3ccc(OC)cc3)no2)c1	-14.6%	-23.9%
12	CC1CCCN(c2csc3ccccc3c2=O)C1 (stereo not given)	67.2%[activator]	-3.0%
13	Cc1cccc(-n2c(=O)c3ccccc3n(Cc3ccc(F)cc3)c2=O)c1	-19.9%	u
14	Cn1c(=O)c2c(ncn2CC(=O)Nc2cc(Cl)cc(Cl)c2)n(C)c1=O	u	u
15	COc1ccc(Cl)cc1C(=O)NCC(c1ccc(N(C)C)cc1)N1CCCC1 (stereo not given)	1.7%	-12.1%
16	Cc1ccccc1CNC(=O)CCCn1c(=O)c2cccn2c2cccnc21	6.9%	u
17	Cc1ccc(N(C)S(=O)(=O)c2ccc(-c3cnc(C4CC4)o3)cc2)cc1	u	14.1µM*
18	COc1ccc(OC)c(NC(=O)Cn2c(=O)cc(-c3ccccc3)c3c(C)nn(C)c32)c1	u	u
19	COc1ccc(OCC(=O)Nc2ccc(Cl)c(-c3nc4ncccc4o3)c2)cc1	11.1%	-37.6%
20	COC(=O)c1sccc1S(=O)(=O)N(CC(=O)NCc1ccc(C)cc1)c1ccc(C)cc1	-18.7%	-114.8%
21	COc1ccc(NC(=O)c2cccc(N3CCCS3(=O)=O)c2)c(OC)c1	6.9%	1.7%
22	Cc1ccc(NC(=O)CN(C)S(=O)(=O)c2cccc3nsnc23)c(C)c1	-22.5%	-0.6%
23	COc1ccc(NC(=O)CSC2=Nc3ccccc3N=C(c3ccc(F)cc3)C2)cc1OC	-23.5%	-27.7%
24	Cc1ccc(C(=O)N(Cc2ccco2)c2ccccn2)cc1	17.5%	-35.0%
25	COc1ccc(CCN2CCC(CNC(=O)c3cnn(-c4cccc(Cl)c4)c3C3CCN(C(=O)OC(C)(C)C)CC3)CC2)cc1	-16.5%	u
26	CCc1ccccc1NC(=O)C1CCCN(c2nnc(-n3c(C)ccc3C)s2)C1 (stereo not given)	-28.0%	u
27	COc1ccccc1C(=O)Nc1nc(-c2ccccc2)ns1	61.2%[activator]	0.6%
28	Cc1ccc(-c2nn(-c3ccccc3)c3c2cnc2ccccc23)cc1C	-12.6%	-35.0%
29	Cc1ccc(-n2ccn(CC(=O)NCCc3ccccc3)c(=O)c2=O)cc1C	19.1%	8.6%
30	CCN1C(=O)c2ccccc2S(=O)c2ccc(C(=O)N3CCN(c4cccc(Cl)c4)CC3)cc21 (stereo not given)	u	17.9µM*
31	CCC(C(=O)Nc1ccccc1)n1nc(-c2cc(C)ccc2C)ccc1=O (stereo not given)	-23.3%	12.2%
32	CCN(CCCNC(=O)c1c(C)oc2ncn(CC(C)C)c(=O)c12)Cc1ccccc1	10.0%	-18.5%
33	O=S(=O)(c1ccccc1)c1nc(-c2ccco2)oc1SCc1ccc(F)cc1	-35.0%	2.1%
34	CCOCCCn1c(SCC(=O)Nc2ccc(C)cc2)nc2ccccc2c1=O	u	-15.4%
35	CCN(CC)CCCNC(=O)c1cnc(SC)nc1-c1ccccc1	-2.2%	-4.8%
36	CCOC(=O)c1c(C)c(-c2ccccc2)n(CC(=O)NCc2ccccc2)c1C	-3.2%	u
37	Cc1cc(N2CCN(c3cccc(C)c3C)CC2)n2nc(C)c(-c3ccc(Cl)cc3)c2n1	-9.5%	-2.8%
38	CCOc1ccccc1NS(=O)(=O)c1cc2[nH]c(=O)c(=O)[nH]c2cc1C	1.0%	-1.7%
39	Cc1ccccc1OCC(=O)Nc1ccc(C(=O)OCc2cc(=O)n3c(C)csc3n2)cc1	u	4.9%
40	CCOC(=O)Cn1c(=O)n(C2CCCCC2)c2nc(-c3ccc(OC)cc3)nc(C(N)=O)c21	-7.3%	-1.7%
41	COc1ccc(NC(=O)C(C)n2nc(-c3cc(C)ccc3C)c3c(c2=O)CCCC3)cc1 (stereo not given)	u	-24.6%
42	CCOC(=O)Cc1ccc(NC(=O)NC(C)c2c(-n3cccc3)sc(C)c2C)cc1 (stereo not given)	-24.1%	2.9%
43	COc1ccc(NC(=O)CSc2ccc3nc(-c4ccccc4)cn3n2)c(OC)c1	u	4.2%
44	CC(C)Oc1ccc(CNC(=O)c2cc3cccc4c3n2CC(C)S4)cc1 (stereo not given)	-12.1%	-19.7%
45	Cc1cccc(-c2nc3cc(NC(=O)COc4ccccc4F)ccc3o2)c1	11.9%	-20.1%
46	CC(C)(C)[C@H](NC(=O)c1ccc(N)c(Cl)c1)C(=O)N1CCC[C@@H]1C(=O)N[C@H](C#N)CC(=O)O	0.3%[6.01 µM]	x
47	Cc1cccc(NC(=O)CCn2cnnn2)c1	-13.8%	-9.9%
48	COc1ccccc1C(=O)OCc1cc(=O)n2nc(C3CCCCC3)sc2n1	-3.0%	-20.1%
49	CC1(C)OC[C@@H]2O[C@@]3(C(=O)O)OC(C)(C)O[C@H]3[C@@H]2O1	2.7%	x
50	CCCc1cc(=O)oc2cc(C)c3c(C(C)(C)C)coc3c12	-3.2%	u

# The listing continues.
nr	SMILES	HTT prom inh	PMP22 txn prim
51	COc1cccc(CN2CCCN(Cc3ccc(F)cc3)S2(=O)=O)c1	-12.6%	-10.2%
52	CCCc1ccc(OC(=O)c2sc3ncn(Cc4cccc(F)c4)c(=O)c3c2C)cc1	-19.2%[11.5 µM]	-15.5%
53	CCc1nn2c(=O)cc(COc3ccc(/C=C(\C#N)C(=O)Nc4ccc(C)cc4)cc3)nc2s1	-6.5%	4.2%
54	Cc1ccc(-n2ncc3c(N4CCC(Cc5ccccc5)CC4)ncnc32)cc1	u	u
55	O=S(=O)(Nc1ccc(F)cc1F)c1ccc(Br)s1	-24.7%	-75.5%
56	COC(=O)c1c(-c2ccc(Cl)cc2)noc1N1CCN(c2cccc(C)c2C)CC1	-4.5%	u
57	COc1ccc(Cn2nnc3c(=O)[nH]c(C4CCCN(C(=O)c5ccccc5Cl)C4)nc32)cc1OC (stereo not given)	-19.6%	u
58	CCOc1ccc(NC(=O)c2ccc3[nH]c(C)c(C)c3c2)cc1	1.3%	-7.2%
59	O=C(Cn1c(=O)n(-c2ccc(Cl)cc2)c(=O)c2sc3ccccc3c21)NC1CCCCC1	-13.8%	-6.8%
60	Cc1c(C)n(CCN(C)C)c2ccc(C(=O)OCCN(C)C)cc12	4.3%	x
61	Cc1ccc(CCNC(=O)CN2C(=O)COc3ccc(S(=O)(=O)N4CCCCCC4)cc32)cc1	-12.3%	-1.1%
62	CCn1c(SCc2ccc(F)cc2Cl)nnc1-c1nonc1NC(C)=O	u	17.6%
63	CCOC(=O)c1c(NC(=O)CS(=O)(=O)c2ccc(Cl)cc2)sc2c1CCCC2	-9.4%	-40.9%
64	CCOC(=O)C1(C)C=C(Nc2ccc(C(N)=O)cc2)C(=O)N1c1ccccc1 (stereo not given)	0.3%	-22.6%
65	O=C(CNS(=O)(=O)c1cccs1)N1CCN(c2ccccc2Cl)CC1	79.8%[activator]	-12.3%
66	CCCOc1ccc(-c2cccc(NS(=O)(=O)c3ccc(CC)cc3)c2)nn1	u	-3.8%
67	COc1cccc(C(=O)N2CC(=O)Nc3ccc(C)cc3C2c2ccc(F)cc2)c1OC (stereo not given)	-29.0%	-0.1%
68	CCCCOc1ccc(C(=O)N2CCN(CCc3ccncc3)CC2)cc1	2.9%	-2.2%
69	COc1ccc(C(=O)N2CCN(CC(=O)N3CCOCC3)CC2)cc1	-2.2%	x
70	COc1ccc(-c2cc3nc(-c4ccc(C)cc4)cc(C(F)(F)F)n3n2)cc1	-3.4%	4.9%
71	CCOc1ccc(NC(=O)CCSc2nc(-c3ccc4c(c3)OCO4)cc(C(F)(F)F)n2)cc1	3.8%	u
72	O=C(CCC(=O)N1CC2CCCN2c2ccccc21)NCc1ccccc1 (stereo not given)	-13.5%	-1.3%
73	COc1ccc(C(=O)Nc2ccccc2-c2nc(-c3ccc(OC)cc3)no2)cc1	5.9%	11.4%
74	O=S(=O)(NCCc1csc2nc(-c3ccccc3)nn12)c1ccc(Oc2ccccc2)cc1	u	u
75	COc1ccc(C(=O)c2cn(CC(=O)Nc3cc(C)ccc3C)c3nc(C)ccc3c2=O)cc1	9.9%	-23.9%

# Part of the list above, with values under each structure.
# Each structure is followed by: HTT prom inh, PMP22 txn prim
[52] CCCc1ccc(OC(=O)c2sc3ncn(Cc4cccc(F)c4)c(=O)c3c2C)cc1
  -19.2%[11.5 µM], -15.5%
[70] COc1ccc(-c2cc3nc(-c4ccc(C)cc4)cc(C(F)(F)F)n3n2)cc1
  -3.4%, 4.9%

# Continued:
nr	SMILES	HTT prom inh	PMP22 txn prim
76	CCc1cccc(NC(=O)c2cn3c4c(ccc(Cl)c4c2=O)OC(C)C3)c1 (stereo not given)	-19.6%	-3.7%
77	COc1cccc(C(=O)c2c(N)c(-c3nc(-c4ccccc4)cs3)c3ccccn23)c1	-1.1%	-24.2%
78	CCC(=O)N1c2ccc(S(=O)(=O)CCC(=O)Nc3ccc(OC)cc3OC)cc2CC1C (stereo not given)	-4.3%	-10.5%
79	COc1cc(C2c3c(oc4cc(C)c(C)cc4c3=O)C(=O)N2CCCN2CCOCC2)ccc1O (stereo not given)	-10.4%	u
80	CC(C)c1ccc(NC(=O)c2ccc(F)c(S(=O)(=O)N3CCCCCC3)c2)cc1	u	-22.6%
81	Cc1ccc(Cn2ccnc2SCC(=O)Nc2ccc3c(c2)OCO3)cc1	-8.8%	-8.6%
82	COc1cc(NC(=O)CN2C(=O)c3ccccc3Sc3ccc(C(=O)N4CCCC4)cc32)cc(OC)c1	-4.9%	u
83	COc1ccc2c(c1)Cc1sc(NC(=O)c3cccc(C)c3)nc1-2	-14.3%	-26.5%
84	COc1ccc(OC)c(/C=C/c2nc3ccccc3c(=O)n2-c2ccc(F)c(Cl)c2)c1	u	-3.1%
85	COc1ccc(-n2c(=O)c3c4c(sc3n(Cc3c(F)cccc3Cl)c2=O)CN(C(C)=O)CC4)cc1OC	9.9%	8.1%
86	Cc1ccc(-c2nc3ccccn3c2Nc2ccc3c(c2)OCCO3)o1	-10.6%	-14.7%
87	CCOc1ccc(NCc2cccn2-c2nnc(N3CCC(C(=O)NCCc4ccc(OCC)c(OCC)c4)CC3)s2)cc1	u	u
88	O=C(NCCc1ccc(Cl)cc1)c1cc(-c2ccc(Cl)cc2)n[nH]1	-2.1%	-2.9%
89	O=c1c2cc3c(cc2n(Cc2cccc(F)c2)c(=O)n1Cc1nc(-c2ccccc2)no1)OCO3	-10.3%	2.4%
90	CCc1nccn1S(=O)(=O)c1cc(Br)ccc1Br	-1.7%	14.3%
91	COCc1cc(C)nc2c1C(=O)NC(c1ccc(C)cc1)N2Cc1ccccc1 (stereo not given)	u	-10.9%
92	COc1ccccc1CNC(=O)c1oc2c(c1C)-c1nn(Cc3ccc(Cl)cc3)cc1CC2	-21.0%	u
93	CC(C)(C)c1ccc(-c2noc(CCC(=O)Nc3cccc(Cl)c3)n2)cc1	-85.5%	u
94	CCc1ccccc1NC(=O)Cn1nnc(-c2nc(-c3ccncc3)no2)c1N	-0.5%	-1.0%
95	CCc1ccccc1NC(=O)CSc1nc2ncccc2o1	-17.1%	16.8%
96	CCOc1cc(C(=O)NCc2ccc3c(c2)CCN3C(=O)c2ccc(F)cc2)cc(OCC)c1OCC	u	u

# In the list so far, 6 contain a furan ring, fused or not:
nr	SMILES	HTT prom inh	PMP22 txn prim
24	Cc1ccc(C(=O)N(Cc2ccco2)c2ccccn2)cc1	17.5%	-35.0%
32	CCN(CCCNC(=O)c1c(C)oc2ncn(CC(C)C)c(=O)c12)Cc1ccccc1	10.0%	-18.5%
33	O=S(=O)(c1ccccc1)c1nc(-c2ccco2)oc1SCc1ccc(F)cc1	-35.0%	2.1%
50	CCCc1cc(=O)oc2cc(C)c3c(C(C)(C)C)coc3c12	-3.2%	u
86	Cc1ccc(-c2nc3ccccn3c2Nc2ccc3c(c2)OCCO3)o1	-10.6%	-14.7%
92	COc1ccccc1CNC(=O)c1oc2c(c1C)-c1nn(Cc3ccc(Cl)cc3)cc1CC2	-21.0%	u

# Screening results from PubChem.
